Assay outcomes as filed in PubChem BioAssay.
TRPML1 blocker: qHTS for Inhibitors of the Human Mucolipin Transient Receptor Potential 1 (TRPML1); activity change, negative = inhibition, % (concentration not given with the values); TRPML1-inducible cells, Ca2+ dye fluorescence, FDSS; active compounds read low; inhibition of EC80 agonist-evoked calcium signal; Mucolipin-1 (Homo sapiens), Q9GZU1; hit rate 0.02% among 390,000; in the data active means activity change below about -50%; inconclusive means about -30% to -50%; inactive means above about -30%;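 further: stimulus is agonist 54-4 at its EC80 concentration; on the % scale 0 is the no-effect control and ±100 the full control effect; the text of the record puts the active cut at -80%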
Target sequence (Q9GZU1 whole entry, looked up): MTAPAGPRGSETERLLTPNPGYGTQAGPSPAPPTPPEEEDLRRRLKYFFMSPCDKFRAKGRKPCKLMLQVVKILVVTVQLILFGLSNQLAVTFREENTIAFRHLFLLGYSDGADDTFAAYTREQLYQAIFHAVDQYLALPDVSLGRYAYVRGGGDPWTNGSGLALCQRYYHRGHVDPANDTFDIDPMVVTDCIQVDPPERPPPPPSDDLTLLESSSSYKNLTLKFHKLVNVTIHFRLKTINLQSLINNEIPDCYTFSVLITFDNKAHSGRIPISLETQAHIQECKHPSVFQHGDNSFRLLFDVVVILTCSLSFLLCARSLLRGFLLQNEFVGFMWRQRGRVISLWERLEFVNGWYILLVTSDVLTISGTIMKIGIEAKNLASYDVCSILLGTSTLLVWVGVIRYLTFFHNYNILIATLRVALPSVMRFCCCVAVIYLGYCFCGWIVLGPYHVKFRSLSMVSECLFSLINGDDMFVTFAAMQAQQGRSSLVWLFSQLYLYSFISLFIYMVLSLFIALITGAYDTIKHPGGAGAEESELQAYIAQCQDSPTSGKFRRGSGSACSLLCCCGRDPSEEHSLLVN
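Tet-induced TRPML1-DL cells loaded with Ca8 no-wash calcium dye were read kinetically on FDSS. Compound addition was followed by EC80 agonist 54-4 (4 uM final); inhibition was read over 110 s.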
gsp antagonist: qHTS for Antagonists of gsp, the Etiologic Mutation Responsible for Fibrous Dysplasia/McCune-Albright Syndrome: qHTS | gsp-mutant cells, cAMP HTRF, 30 min; control for the full effect not named in the record | Potency, µM (titrated, usually from 76.9 µM), for inactives: at the top dose activity change, negative = inhibition, hits mostly inhibitors | hit rate 0.4% among 340,000 | AID 624288, 2012; active = falling curve of any shape with a large fitted effect; inconclusive = falling curve, mostly with a smaller effect; inactive = flat or rising curve; cell line not stated here;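 further: intracellular cAMP measured with PDE inhibitor Ro 20-1724 present during compound exposure; potency means the concentration at half of the fitted maximal effect; on the % scale 0 is the no-effect control and ±100 the full control effect; nearly all actives have a fitted effect of over 65% in size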
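Cells, 2000/well, grown 16–24 h in DMEM 10% FBS with 0.5 mg/ml G418, then compounds plus […] (300 uM addition stock), 30 min at 37C. cAMP read by HTRF (cAMP-d2 and anti-cAMP antibody-K in lysis buffer) after 30 min RT.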
TRPML1 ag: qHTS for Agonists of the Human Mucolipin Transient Receptor Potential 1 (TRPML1); Mucolipin-1 (Homo sapiens), Q9GZU1; TRPML1-expressing cells, Ca2+ dye fluorescence, FDSS; host cell line not named in the record; reference of the full effect not given here; activation, % (test concentration not listed); hit rate 0.12% among 410,000; in the data active = activation above about 50%; inconclusive = about 30% to 50%; inactive = below about 30%; further: 0% is about no effect; the text of the record puts the active cut at 80%
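Tet-induced TRPML1-DL cells, 1,500 per well, cultured overnight, were loaded with a no-wash Ca2+ dye for 45–90 min. Calcium fluorescence was recorded on the FDSS for 110 s after compound addition, before the EC80 agonist (4 uM 54-4) was added.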
gsp ag: qHTS for Agonist of gsp, the Etiologic Mutation Responsible for Fibrous Dysplasia/McCune-Albright Syndrome: qHTS. AID 624287, 2012. Potency, µM (highest dose often 76.9 µM), inactives show top-dose activation (cAMP increase), usual class: activators. hit rate 0.13% among 340,000. gsp mutant cells, cAMP HTRF, 30 min; control for the full effect not named in the record; active = well fitted activation curve with a large enough effect; inconclusive = small, poorly fitted or top-dose-only effect, or another doubt; inactive = no such curve, though single readings can be large or run the other way; cell line not stated here;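 further: phosphodiesterase inhibitor Ro 20-1724 added with compounds to block cAMP breakdown; potency means the concentration at half of the fitted maximal effect; nearly all actives have a fitted effect of over 60% in size; about a fifth of the inactives were tested at one dose only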
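Cells stably selected in G418 were plated at 2000/well, grown 16-24 hr, then given compounds in DMSO with the PDE inhibitor […] (300 uM solution added) for 30 min at 37C; cAMP was read by HTRF.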
Menin MLL FP FL: qHTS Assay for Inhibitors Targeting the Menin-MLL Interaction in MLL Related Leukemias: Competition With Fluorescein Labeled MLL-derived Peptide. Fluorescence polarization, fluorescein-MLL peptide displacement from menin. FP activity change, % at 61.4 µM. 290,000 tested, under 10 active; inconclusive = falling polarisation curve, or a change in total fluorescence; inactive = total fluorescence flat and polarisation flat or rising; no compound was filed as active; the % refers to the polarisation; negative = inhibition;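 further: % of control where 0% means no effect; inhibitors lower the polarisation; unlabelled MLL peptide was the positive control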
ClpP mod: qHTS Assay for Activators of ClpP; purified B. subtilis ClpP, FRET peptide cleavage, 20 min; Potency, µM (doses to about 57.5 µM), for inactives: at the highest dose activity change, negative = active; hit rate 1.9% among 340,000; ATP-dependent Clp protease proteolytic subunit (Bacillus subtilis (strain 168)), P80244; active = well fitted falling curve with a large enough effect; inconclusive = small, poorly fitted or top-dose-only effect; inactive = no such curve, though single readings can be large or run the other way; further: potency means the concentration at half of the fitted maximal effect; the source files actives as falling curves though it sought activators and does not explain the sign; nearly all actives have a fitted effect of over 65% in size; many hits overshoot -100%
Target sequence (P80244 whole entry, looked up): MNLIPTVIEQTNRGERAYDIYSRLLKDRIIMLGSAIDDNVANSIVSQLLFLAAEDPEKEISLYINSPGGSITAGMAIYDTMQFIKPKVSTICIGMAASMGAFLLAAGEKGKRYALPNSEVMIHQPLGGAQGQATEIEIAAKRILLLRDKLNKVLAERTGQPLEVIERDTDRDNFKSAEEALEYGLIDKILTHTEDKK
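Purified B. subtilis ClpP, 10 microg/mL final in Tris/HCl pH8 with KCl, BSA, glycerol and Tween-20, cleaved an Abz/nitrotyrosine-quenched decapeptide. Fluorescence (ex 320, em 430) was read at 0 and 20 min at room temperature. Delta was normalized to 5.8 microM ADEP and DMSO/no-enzyme controls.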
* hit, by the source's call; ? = inconclusive; nt = no result given; & = joins results of further samples; [ ] = another dose, or the depositor's remark.

SMILES	TRPML1 blocker	gsp antagonist	TRPML1 ag	gsp ag	Menin MLL FP FL	ClpP mod
COc1cc(/C=C/c2cc[n+](C)cc2)ccc1OCC(=O)Nc1ccc(Cl)c(Cl)c1	62	-2%	5.7	14%[15.4 µM]	nt	nt
CCOc1ccc(-c2nnn(CC(=O)NCc3ccccc3)n2)cc1	8	-11%	0.8	-30%[inhibitor]	-2.2	nt
COc1ccc(Cl)cc1NC(=O)C(C)N1CCc2ccccc21 (configuration not stated)	1	-9%	-0.6	-8%[15.4 µM]	0.5	28µM*
O=C(COc1cc2oc(=O)c3c(c2cc1Cl)CCC3)NCCCn1ccnc1	33	3%	3.7	12%	nt	-24%
COc1ccc2oc(-c3ccccc3)c(C(=O)N3CCOCC3)c2c1	42	-11%	0.2	?	0.6	28µM*
O=C(Cn1cc2c(n1)CCCC2)NCc1cccs1	18	-2%	1.4	8%	1.4	1.2%
COc1cc(C2C(=O)N(C3CCCCC3)CC(=O)N2C2CCCCC2)ccc1OC(C)C (configuration not stated)	-16	nt	0.5	nt	nt	-2.0%
O=C(Cn1nc(Cl)nc1Cl)c1ccc(F)cc1	9	4%	-0.3	-30%	-4.5	1.2%
CCN(CC)C(=O)c1sc(N)c(C#N)c1C	-8	27%	-1.3	?	0.6	1.1%
C[C@@H]1CCCCO[C@@H](CN(C)Cc2ccc(Cl)c(Cl)c2)[C@@H](C)CN([C@H](C)CO)C(=O)c2cc(NC(=O)CCC(F)(F)F)ccc2O1	14	nt	0.2	-57%[inhibitor]	nt	-6.1%
Cc1nn(CC(=O)N2CCc3ccccc32)c(C)c1S(=O)(=O)NC(C)(C)C	40	-12%	1.0	3%	nt	20%
COc1cc(OC)cc(C(=O)NNC(=O)CCC(=O)c2cc(C)sc2C)c1	3	?	6.0	-30%	nt	1.3%
CN1CCN(C(=O)C2CC(c3ccc(F)cc3)=NO2)CC1 (configuration not stated)	4	-8%	1.2	3%	-1.0	-2.4%
Cc1nn(C)c(C)c1S(=O)(=O)N(CC(=O)NCCCN1CC(C)CC(C)C1)c1ccc(C(C)C)cc1 (configuration not stated)	10	3%	-0.4	-27%	-6.1	-1.8%
C#C[C@]1(O)CCC2C3CCC4=CC(=O)CC[C@@H]4C3CC[C@@]21C (some centres not stated)	17	-6%	-0.3	nt	-3.3	3.7%
Cc1ccc(CS(=O)(=O)c2nsc(C)c2C#N)cc1	9	7%	-0.4	12%	0.4	nt
Cc1ccc(S(=O)(=O)c2cn(Cc3ccccc3F)c3cc4c(cc3c2=O)OCO4)cc1	5	nt	-0.1	nt	nt	-29%
Cc1cccc(C(=O)NCC(=O)NCC(c2ccco2)N2CCCCC2)c1 (configuration not stated)	31	13%	-0.2	23%	nt	-1.7%
Cc1ccc2occ(CC(=O)N(Cc3ccc(N(C)C)cc3)C3CCS(=O)(=O)C3)c2c1 (configuration not stated)	-5	nt	1.5	nt	nt	-1.1%
COc1cc(C(C)=O)ccc1OC(=O)CN1C(=O)c2ccccc2C1=O	-6	2%	-0.2	2%[15.4 µM]	0.6	nt

Compound profiles, as listed above. Screens in order: TRPML1 blocker | gsp antagonist | TRPML1 ag | gsp ag | Menin MLL FP FL | ClpP mod
Cc1nn(C)c(C)c1S(=O)(=O)N(CC(=O)NCCCN1CC(C)CC(C)C1)c1ccc(C(C)C)cc1 (configuration not stated) across the screens: 10 | 3% | -0.4 | -27% | -6.1 | -1.8%
COc1cc(C(C)=O)ccc1OC(=O)CN1C(=O)c2ccccc2C1=O across the screens: -6 | 2% | -0.2 | 2%[15.4 µM] | 0.6 | nt

Next structures.
SMILES	TRPML1 blocker	gsp antagonist	TRPML1 ag	gsp ag	Menin MLL FP FL	ClpP mod
O=C(CCN1C(=O)S/C(=C\c2ccccc2)C1=O)NCCCn1ccnc1	-10	0%	0.5	9%	-2.4	0.1%
Cc1nnc(SCC(=O)NCc2ccco2)[nH]c1=O	15	0%	0.6	?	?	-3.3%
Cn1cc(/C=C(\NC(=O)c2ccccc2Cl)C(=O)NCCCN2CCOCC2)c2ccccc21	5	-43%	0.1	-17%	nt	-1.3%
Nn1c(SCc2ccc(Br)cc2)nnc1-c1ccccn1	15	1%	0.9	?	1.1	nt
COc1cc(C(=O)COC(=O)c2ccc3c(c2)OCCO3)cc(OC)c1OC	4	nt	-0.5	-94%[inhibitor]	nt	1.9%
O=C(CN1CCN(c2ccccc2)CC1)c1ccc2cc[nH]c2c1	0	1%	-0.1	13%	-6.4	?
Cc1cc2nc(N3C(=O)CNC3=S)sc2cc1C	32	-8%	-0.2	0%	2.7	nt
Cc1cc(C)n2nc(C(=O)N/N=C/c3cccs3)nc2n1	-8	0%	0.0	-61%[inhibitor]	1.3	nt
CC(C)(C)NC(=S)NNC(=O)[C@H]1C[C@@H]1c1ccccc1	-2	4%	2.6	24%	1.6	nt
COCCn1c(C)cc(C2=NNC(=NC(C)(C)C)SC2)c1C	-4	-1%	0.0	-96%[inhibitor]	-9.2	nt
Cc1ccc(NC(=O)C2CCCN(S(=O)(=O)c3cnc[nH]3)C2)cc1C (configuration not stated)	7	1%	-0.1	4%	4.0	-2.9%
O=C(NCc1ccc(Cl)cc1)c1csc(-c2cccnc2)n1	1	-2%	2.1	-32%[inhibitor]	1.2	-3.9%
CCN(CC(=O)NCc1ccc(F)cc1)S(=O)(=O)c1ccc(Cl)s1	0	-9%	-0.2	5%	nt	-1.8%
CCCc1nc(SCC(=O)Nc2cc(C)on2)c2c(=O)n(C)c(=O)n(C)c2n1	5	10%	0.3	8%	1.3	1.7%
Cc1ccc(C(=O)N[C@H](C(=O)Nc2sccc2C(N)=O)C(C)C)cc1	-3	-6%	-0.6	-9%	2.0	nt
Cc1ccc(NC(NC(=O)c2ccccc2[N+](=O)[O-])C(Cl)(Cl)Cl)cc1 (configuration not stated)	-11	-2%	-0.7	-56%[inhibitor]	2.1	-2.2%
Cc1c(C(=O)N(C)c2ccccc2)oc2c1C(O)CC(C)(C)C2 (configuration not stated)	6	13%	3.7	?	nt	2.9%
CC(OC(=O)c1ncc(Cl)c(Cl)c1Cl)C(=O)NC1(C#N)CCCCC1 (configuration not stated)	-6	-8%	1.2	0%[15.4 µM]	nt	nt
CCOC(=O)C1=NOC(CNC(=O)C2=NOC(CNC(=O)c3c(-c4ccccc4Cl)noc3C)C2)C1 (configuration not stated)	18	-5%[15.4 µM]	1.0	-9%	3.1	-2.6%
CCCCNC(=O)Cn1c(=O)cc(C)c2c(C)nn(-c3cccc(Cl)c3C)c21	1	nt	0.6	nt	nt	-3.6%
Cc1ccc(C)c(NC(=O)C2CCCN(S(=O)(=O)c3cccnc3)C2)c1 (configuration not stated)	-14	1%	0.1	-4%	nt	-3.1%
Cc1cc(Cl)ccc1OCCCC(=O)NO	-16	6%	-0.6&-0.3	30%	0.7	-0.4%&0.8%
COc1cc(NC(=O)CN2C(=O)NC(c3ccccc3)(c3ccccc3)C2=O)cc(OC)c1	31	?	1.2	?	7.0	-3.1%
CC(CCc1ccccc1)NC(=O)Cn1c(=O)nc(-c2ccccc2)c2ccccc21 (configuration not stated)	?	nt	3.7	nt	nt	-9.4%
CCOC(=O)C1CCCN(c2ccc(NC(=O)c3snc4c(=O)[nH]c(C)nc34)cc2)C1 (configuration not stated)	24	?	-0.4	0%	0.6	0.4%
C#CCOCCOCCOCCNc1nc(N2CCN(C(=O)CCCCCCCCCCNC(=O)[C@@H](CCSC)n3cc(CCO)nn3)CC2)nc(N2CCN(C(=O)CCCCCCCCCCNC(=O)[C@@H]([C@H](C)O)n3cc(C)nn3)CC2)n1	10	-6%	0.6	-23%	nt	-1.4%
CCc1nc2ccccc2n(CC)c1=O	-8	22%	-0.6	18%	6.0	?
COc1ccc(Oc2c(OC)cc(NCc3ccc(CN)cc3)c3ncccc23)cc1	-6	nt	-0.1	?	nt	-9.9%
COc1cc(CCC(=O)Nc2c(C(=O)N3CCN(c4ccccc4OC)CC3)oc3ccccc23)on1	18	-13%	1.1	-42%[inhibitor]	nt	-1.8%
Cc1ccc(S(=O)(=O)N2CCN(CC(=O)N/N=C\c3ccccn3)CC2)cc1	4	-15%	0.4	-45%	2.7	-1.5%
C/C(=N/NC(=O)c1cc(O)c(O)c(O)c1)c1ccc([N+](=O)[O-])cc1	9	-10%	0.2	-30%	0.0	1.7%
O=C(NNC(=O)c1ccccc1O)c1cccc(Br)c1	10	0%	0.8	-38%[inhibitor]	-0.5	-0.9%
CCOc1ccc(C2C(C(=O)Nc3cc(C)on3)c3ccccc3C(=O)N2CCN2CCOCC2)cc1 (configuration not stated)	-2	8%	1.0	10%[15.4 µM]	-3.4	nt
O=C(Oc1ccc(Br)cc1C(=S)N1CCCCC1)c1cc([N+](=O)[O-])cc([N+](=O)[O-])c1	32	-8%	-0.6	-18%	-0.6	0.6%
O=C(CCn1c(=O)[nH]c2ccsc2c1=O)Nc1ccc(F)c(F)c1	28	-4%	0.6	-3%	0.0	2.5%
CCC(Sc1ccc2nnc(-c3cccnc3)n2n1)C(=O)OC (configuration not stated)	11	3%	-0.5&-0.3	?	0.1	4.2%&-29%
O=C1C2C(C(=O)N1/N=C/c1ccc(N3CCCCC3)o1)C1C=CC2C12CC2 (configuration not stated)	-5	7%	1.4	16%[15.4 µM]	15	-2.7%
CNS(=O)(=O)c1cccc(C(=O)OCC(=O)N(CCC#N)c2ccccc2)c1	-17	nt	-0.5	-1%[15.4 µM]	0.6	nt
COc1ccc(OC)c(NC(=O)C2CC(=O)N(c3ccccc3)C2)c1 (configuration not stated)	0	3%	1.3	?	1.7	-2.1%
COc1ccccc1N1CCN(S(=O)(=O)c2ccc(F)c(C(=O)Nc3ccc(C)c(F)c3)c2)CC1	34	nt	0.1	nt	nt	0.0%
Cc1ccc(CNC(=O)C23CN(Cc4ccccc4)CC2C(c2cccc([N+](=O)[O-])c2)=NO3)cc1 (configuration not stated)	22	-9%	1.0	nt	4.3	-1.8%
Cc1cc(NC(=O)COC(=O)c2c(C)nn(-c3ccccc3)c2C)no1	2	2%	0.7	7%	-1.8	1.0%
COc1ccccc1NC(=O)c1c(Nc2ccccc2C)sc(C(=O)Nc2cccc(Cl)c2)c1N	-3	-1%	0.7	0%	10	-2.9%
COC(=O)C(CCSC)NS(=O)(=O)c1ccccc1Br (configuration not stated)	17	nt	0.9	nt	-0.2	nt
